KCNQ2 inh = KCNQ2 channel blockers in CHO-K1 cells – cell-based, FluxOR thallium flux, B-score, primary screen (AID 2156) | O88943 | 20 min; stronger effect = lower value; only compounds with negative scores are shown here; some inactives read as strong as hits | B-score at 10 µM | 310,000 tested, 1.1% active;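 active = fluorescence ratio B-score at most minus 3 library SDs, with starting brightness B-score within 2 library SDs, cut at about -5.5 in these data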
Target sequence (O88943 whole entry, looked up): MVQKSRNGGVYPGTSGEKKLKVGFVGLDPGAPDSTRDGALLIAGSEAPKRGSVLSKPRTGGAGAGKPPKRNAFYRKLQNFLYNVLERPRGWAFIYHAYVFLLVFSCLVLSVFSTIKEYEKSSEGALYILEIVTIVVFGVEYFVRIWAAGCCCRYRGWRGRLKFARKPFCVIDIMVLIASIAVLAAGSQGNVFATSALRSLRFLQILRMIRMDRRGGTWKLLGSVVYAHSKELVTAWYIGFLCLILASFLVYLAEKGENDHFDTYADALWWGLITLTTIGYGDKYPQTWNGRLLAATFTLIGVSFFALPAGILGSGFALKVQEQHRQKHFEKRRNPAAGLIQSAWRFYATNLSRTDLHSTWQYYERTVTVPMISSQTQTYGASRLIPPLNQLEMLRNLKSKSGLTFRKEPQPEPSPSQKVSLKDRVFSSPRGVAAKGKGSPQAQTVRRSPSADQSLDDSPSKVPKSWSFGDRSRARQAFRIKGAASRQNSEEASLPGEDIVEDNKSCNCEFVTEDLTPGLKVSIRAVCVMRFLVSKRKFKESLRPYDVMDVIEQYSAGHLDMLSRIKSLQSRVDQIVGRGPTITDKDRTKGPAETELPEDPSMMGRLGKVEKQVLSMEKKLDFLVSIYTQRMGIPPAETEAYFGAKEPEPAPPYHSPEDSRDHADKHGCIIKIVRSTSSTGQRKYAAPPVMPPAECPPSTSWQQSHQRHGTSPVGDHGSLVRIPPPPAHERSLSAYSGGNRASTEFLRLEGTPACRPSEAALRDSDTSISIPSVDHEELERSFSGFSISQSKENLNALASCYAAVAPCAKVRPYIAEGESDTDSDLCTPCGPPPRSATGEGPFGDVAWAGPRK
KCNQ2 inh baseline = recorded beside KCNQ2 inh, whose call it bears; B-score; measured here: initial fluorescence intensity artifact check;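 brightness before thallium and not channel activity; 0 = typical well and far values either way flag optical interference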
Numbers without * were called inactive; i = inactive. The list is partial (hit frequency here may not be typical).

The first two compounds as a preview:
SMILES | KCNQ2 inh | KCNQ2 inh baseline
COc1ccccc1NS(=O)(=O)c1cc(C(=O)NCCN2CCOCC2)ccc1Cl | i | -0.74
COc1ccc(/C=N/NC(=O)c2ccccc2O)cc1CN1CCOCC1 | i | -0.38

All compounds of this part, from the start:
SMILES | KCNQ2 inh | KCNQ2 inh baseline
COc1ccccc1NS(=O)(=O)c1cc(C(=O)NCCN2CCOCC2)ccc1Cl | i | -0.74
COc1ccc(/C=N/NC(=O)c2ccccc2O)cc1CN1CCOCC1 | i | -0.38
CCOC(=O)c1c(C)[nH]c(C(=O)OCC(=O)NC2(C#N)CCCCC2)c1C | i | -1.85
Brc1ccc2c(c1)OCCOCCOc1cc(Br)ccc1OCCOCCOCCO2 | i | -2.44
COc1ccc(C(=O)c2cccc(C(=O)c3ccc(OC)c(C)c3)c2)cc1C | i | -0.49
Cc1ccc(-c2csc(Cc3nc(-c4cc5ccccc5oc4=O)cs3)n2)cc1 | i | -0.58
COc1ccc(-n2nc(C(=O)NCC(=O)NCCCN3CCC(C)CC3)c3ccccc3c2=O)cc1Cl | i | 1.17
COc1cc(C(=O)NCCCC2CCCC2)ccc1OC1CCN(C(C)=O)CC1 | i | -0.05
COc1cccc(/C=N/n2nnnc2N)c1OCC#N | i | -0.01
CC1(C)CC2(CCCN(C(=S)Nc3ccccc3)C2)CCO1 (configuration not stated) | i | -0.93
C=CCSc1nc(N(CC)CC)c2sccc2n1 | i | 1.14
c1ccc(Nc2nc(N3CCOCC3)c3ccccc3n2)cc1 | i | 0.8
O=C(N/N=C\c1c(O)ccc2ccccc12)c1ccc(O)cc1 | i | -0.56
COc1cnn(-c2cccc(C)c2)c(=O)c1Cl | i | -0.05
COc1ccccc1N/C(N)=N/c1nc(CSc2nc3ccccc3s2)cc(=O)[nH]1 | i | 0.15

Rewritten comma-delimited: part of the list above.
smiles,KCNQ2 inh,KCNQ2 inh baseline
Brc1ccc2c(c1)OCCOCCOc1cc(Br)ccc1OCCOCCOCCO2,i,-2.44
COc1ccc(C(=O)c2cccc(C(=O)c3ccc(OC)c(C)c3)c2)cc1C,i,-0.49
Cc1ccc(-c2csc(Cc3nc(-c4cc5ccccc5oc4=O)cs3)n2)cc1,i,-0.58
COc1ccc(-n2nc(C(=O)NCC(=O)NCCCN3CCC(C)CC3)c3ccccc3c2=O)cc1Cl,i,1.17
COc1cc(C(=O)NCCCC2CCCC2)ccc1OC1CCN(C(C)=O)CC1,i,-0.05

Remaining list, next part:
SMILES | KCNQ2 inh | KCNQ2 inh baseline
C/C(=N\NC(=O)COc1ccc(C(C)(C)C)cc1)c1ccc(-n2ccnc2)cc1 | i | -1.18
C/C=C(\C)CN1CCC(n2nccc2NC(=O)CCc2ccccc2)CC1 | i | -1.57
CN1CCN(C(CNC(=O)Nc2ccc(Cl)cc2)c2ccc(F)cc2)CC1 (configuration not stated) | i | 0.54
Cc1ccc(CNC(=O)CC(C)S(=O)(=O)c2ccc3c(c2)NC(=O)CO3)cc1 (configuration not stated) | i | -0.74
CC(C)OP(=O)(OC(C)C)C1(O)C(=O)Nc2ccc(Br)cc21 (configuration not stated) | i | 1.95
CCOc1cc(-n2cnnn2)c(OCC)cc1NC(=O)c1cnccn1 | i | 0.85
CC1(C)SC(=S)N(/N=C/c2cccnc2)C1N(O)C(=O)Nc1ccccc1 (configuration not stated) | i | 0.04
O=C(CCCc1ccccc1)Nc1ccc2c(c1)OCCO2 | i | 1.6
Cc1cc(C)c(C(=O)/C=C/c2ccc3c(c2)OCO3)c(=O)[nH]1 | i | -0.67
COc1ccc(NC(=O)CN(C)C(=O)c2cc(-c3ccccc3)nc3ccccc23)cc1 | i | -3.38
O=C(OCc1nnc(-c2ccccc2)o1)c1ccc(S(=O)(=O)NCc2ccco2)cc1 | i | -0.89
CC(C)CCOc1ccc(C2(C)NC(=O)NC2=O)cc1 (configuration not stated) | i | 1.23
Cc1ccc(S(=O)(=O)N2CCN(C(=O)c3ccco3)CC2)cc1 | i | 0.65
COc1ccc(CCNC(=O)CNCC2CCCCC2)cc1OC | i | 1.04
CCC[C@@H]1CCCO[C@@](C(=O)NCc2ccc(S(C)(=O)=O)cc2)(C(F)(F)F)C1 | i | 1.49
Cc1n(N)c2ccccc2[n+]1CC(=O)c1ccccc1 | i | 0.89
COc1ccc(C2CC(c3ccc(C)cc3)Nc3ncnn32)cc1 (configuration not stated) | i | 2.32
CS(=O)(=O)c1ccc(C(=O)Nc2ccc(-c3nc4ccccc4[nH]3)cc2)cc1 | i | -0.11
COc1ccc(Br)cc1CN(C)CC(=O)Nc1cc([N+](=O)[O-])ccc1OC | i | 0.12
COc1ccccc1CCC(=O)N(C)CC(=O)Nc1ccc(Cl)c(C(F)(F)F)c1 | i | 0.08
COCCn1c(C(C)C)nc2sc3ccccc3c(=O)c2c1=O | i | 2.2
CC(OC(=O)c1nsc(Cl)c1Cl)C(=O)NCCc1ccccc1 (configuration not stated) | i | 2.29
CC1=NN(c2ccccc2)C(=O)/C1=C/C=C/C=C/N(C)C | i | 1.67
C=CCC(O)(CC=C)CNC(=O)C1CCC(=O)N(CCCc2ccccc2)C1 (configuration not stated) | i | 0.01
COc1ccc(OC)c(Nc2cc(C)nc3ccc(C)cc23)c1 | i | -0.92
O=C1CCc2cc(S(=O)(=O)N3CCN(c4ccccc4)CC3)cc3c2N1CCC3 | i | 0.42
COc1c(C)cc(C(=O)C2CCCN(C(=O)c3cc4nc(C)cc(C)n4n3)C2)cc1C (configuration not stated) | i | 0.51
Cc1ccc([N+](=O)[O-])cc1NC(=O)CN(C(=O)c1ccccc1Cl)C1CCCCC1 | i | -0.73
Cc1ccccc1Cn1c(=O)n(CCCC(=O)NCc2ccco2)c(=O)c2sccc21 | i | 2.06
COc1ccccc1-n1cnc2cc(NCc3ccccn3)ccc21 | i | 0.15

A second format for part of the listing above.
structure	KCNQ2 inh	KCNQ2 inh baseline
CC(C)CCOc1ccc(C2(C)NC(=O)NC2=O)cc1 (configuration not stated)	i	1.23
Cc1ccc(S(=O)(=O)N2CCN(C(=O)c3ccco3)CC2)cc1	i	0.65
COc1ccc(CCNC(=O)CNCC2CCCCC2)cc1OC	i	1.04
CCC[C@@H]1CCCO[C@@](C(=O)NCc2ccc(S(C)(=O)=O)cc2)(C(F)(F)F)C1	i	1.49

Further entries.
SMILES | KCNQ2 inh | KCNQ2 inh baseline
CC(Sc1nncn1C)C(=O)Nc1cc(C(F)(F)F)ccc1N1CCOCC1 (configuration not stated) | i | 1.84
CN(C)S(=O)(=O)n1cc(/C=C(\NC(=O)c2ccccc2F)C(=O)NCCCn2ccnc2)c2ccccc21 | i | 3.35
COc1ccc(C(=O)N=c2sc3c(C)ccc(OC)c3n2C)cc1 | i | -0.01
O=C(/C=N/O)Nc1ccc(F)cc1 | i | 3.53
Clc1cccc(Cl)c1C1Nc2cccc3cccc(c23)N1 | i | -1.2
NC(=O)C1CCN(c2ccc(S(=O)(=O)N3CCCCC3)cn2)CC1 | i | 0.46
Cc1ccc(S(=O)(=O)NC2c3cccc4cccc(c34)C2Sc2n[nH]c(N)n2)cc1 (configuration not stated) | i | -0.32
CS(=O)(=O)c1ccc(Cl)c(NC(=O)CSc2nncn2-c2ccccc2)c1 | i | -0.45
O=C(Nc1cc(Br)ccc1O)C1CC(c2ccccc2Cl)=NO1 (configuration not stated) | i | -0.96
CCC(c1nnnn1CS(=O)(=O)c1ccc(C)cc1)N1CCN(c2nc3ccccc3s2)CC1 (configuration not stated) | i | -1.38
Cc1cccc(Oc2nc(CN3CCOCC3)nc3sc4c(c23)CCCC4)c1 | i | 0.12
Cc1[nH]n(-c2ccccc2)c(=O)c1-c1cccc(Cl)c1 | i | -0.42
Cc1cc(N2C(=O)CC(N3CCN(C(c4ccccc4)c4ccccc4)CC3)C2=O)no1 (configuration not stated) | i | -0.03
O=C(Nc1ccccn1)c1ccc2c(c1)S(=O)(=O)c1ccccc1C2=O | i | -0.04
CCC1Oc2ccc(C)cc2N(CC(=O)NCc2ccco2)C1=O (configuration not stated) | i | 0.05
COc1cc(C(=O)NCCN2CCN(C(=O)c3cc(OC)c(OC)c(OC)c3)CC2)cc(OC)c1OC | i | -0.46
CC1(C)Cc2c(cnn2-c2ccc(F)cc2)C(NC(=O)CCCN2CCCCC2=O)C1 (configuration not stated) | i | -0.12
Cc1ccc(/C=N/n2c(C)nnc2C)s1 | i | 1.26
Cc1ccc(NC(=O)C2CCCN2S(=O)(=O)c2ccc(-c3ccc(=O)[nH]n3)s2)c(C)c1 (configuration not stated) | i | -1.02
O=C(COc1ccc([N+](=O)[O-])cc1)Nc1ccncc1 | i | 1.29
C=CCNC(=O)COc1ccccc1C#N | i | 0.94
O=C(CSc1nnc(-c2ccccc2)n1Cc1ccco1)Nc1ccc(S(=O)(=O)N2CCCC2)cc1 | i | 2.32
CCCc1ncc(CN2CCC(C(=O)Nc3cccc(-c4cscn4)c3)CC2)cn1 | i | -1.43
O=S1(=O)CCOC[C@H](Cc2ccccc2)N1Cc1cccc(Cl)c1 | i | -0.67
c1ccc(-c2csc(-c3ccc(-c4csnn4)cc3)n2)cc1 | i | 0.01
CCOC(=O)c1cnc2c(C(F)(F)F)cccc2c1NCCCN1CCOCC1 | i | 0.48
CC1CN(C(=O)c2cccc(COc3ccc(Br)cc3)c2)CC(C)O1 (configuration not stated) | i | 1.32
COc1ccc(/C(C)=N/NC(=O)CNC(=O)C2COc3ccccc3O2)c(OC)c1 (configuration not stated) | i | -1.71
Cc1ccc([N+](=O)[O-])cc1N=Nc1c(-c2ccc([N+](=O)[O-])cc2)[nH]n(C(N)=S)c1=O | i | 2
CCOc1ccc2nc(SC(C)C(N)=O)[nH]c2c1 (configuration not stated) | i | -2.02
NC(=S)NC1CC2C=CC1C2 (configuration not stated) | i | -2.03
CS(=O)(=O)N1CCc2nc(-c3ccccc3)sc2C1 | i | 0.27
COC(=O)c1ccc(C2c3c(oc4ccc(F)cc4c3=O)C(=O)N2CCO)cc1 (configuration not stated) | i | 0.08
CCN(CC)S(=O)(=O)c1ccc(Cl)c(NC(=O)c2ccccc2C)c1 | i | -1.76
O=C(COC(=O)c1cc[n+]([O-])cc1)Nc1cc([N+](=O)[O-])ccc1Cl | i | 1.04
COc1ccc(N(C(=O)c2cnccn2)C(C(=O)NC2CCCCC2)c2ccccc2)cc1 (configuration not stated) | i | 0.02
Cc1cc(N2CCOCC2)nc(SCC(=O)c2ccccc2)n1 | i | 0.26
COc1ccc(OCC(O)CN2CCN(c3ccccc3)CC2)cc1 (configuration not stated) | i | -0.67
Cc1cc(C(=O)N2CCC(Cc3ccccc3)CC2)ccc1[N+](=O)[O-] | i | 0.04
COc1ccc(S(=O)(=O)N2CCN(c3ccccn3)CC2)c(OC)c1 | i | -0.79
Cc1ccccc1-n1c(-c2ccc3ccccc3n2)n[nH]c1=S | i | 1.13
O=C(c1cc2cc(F)ccc2[nH]1)N1CCN(C(=O)c2ccco2)CC1 | i | 1.77
Cc1oc(-c2ccccc2)nc1CS(=O)CC(=O)N1CCc2ccccc2C1 (configuration not stated) | i | -0.01
CCOC(=O)/C(N=Nc1c(C)n(C)n(-c2ccccc2)c1=O)=C(/O)c1ccccc1 | i | -1.51
C/C(=N\NS(=O)(=O)c1ccc(Br)cc1)c1ccncc1 | i | 1.19

4 entries drawn at random from the list so far, as already listed:
SMILES | KCNQ2 inh | KCNQ2 inh baseline
Cc1cc(C(=O)N2CCC(Cc3ccccc3)CC2)ccc1[N+](=O)[O-] | i | 0.04
COc1ccc(S(=O)(=O)N2CCN(c3ccccn3)CC2)c(OC)c1 | i | -0.79
Cc1ccccc1-n1c(-c2ccc3ccccc3n2)n[nH]c1=S | i | 1.13
C/C(=N\NS(=O)(=O)c1ccc(Br)cc1)c1ccncc1 | i | 1.19

Other compounds.
SMILES | KCNQ2 inh | KCNQ2 inh baseline
COc1ccc(-c2[nH]nc3c2C(c2ccoc2)C(C#N)=C(N)O3)cc1 (configuration not stated) | i | 2.22
CCOc1ncccc1C(=O)Nc1cccc(C(=O)Nc2cccc(S(=O)(=O)CCO)c2)c1 | i | 0.5
Cc1ccc(S(=O)(=O)CCC(=O)OCC(=O)N2c3ccccc3CC2C)cc1 (configuration not stated) | i | -2.16
CCn1c(SCC(=O)Nc2ccc(S(=O)(=O)Nc3onc(C)c3C)cc2)nnc1-c1ccccc1 | i | 0.86
Cc1cccc(C(=O)NCCC(=O)Nc2ccc(C#N)cc2)c1 | i | 1.32
CCNc1ccc(Br)cc(C(=O)/C=C/c2ccccc2Cl)c1=O | i | 0.18
O=C(c1cc(-c2ccccc2Cl)nc2ccccc12)N1CCOCC1 | i | -0.01
CC1CCCN(C(=O)COC(=O)CNC(=O)c2ccc(Br)cc2)C1 (configuration not stated) | i | 3.34
COc1ccccc1NC(=O)NCCC1=CCCCC1 | i | -1.42
O=C(COc1ccccc1)N1CCN(c2ccccc2)CC1 | i | -0.12
CC(=O)Nc1ccc(S(=O)(=O)Nc2nc3ccccc3nc2Nc2ccc3ccccc3c2)cc1 | i | 1.36
COc1cccc(C(=O)O/N=C(\N)c2ccccn2)c1OC | i | 0.64
Cc1ccc(CNC(=O)C(=O)NCCCn2ccnc2)cc1 | i | 0.55
Cc1cc(-c2ccc(C)c(S(=O)(=O)NCCc3ccco3)c2)on1 | i | 0.09
COc1ccc(-c2csc(N(CCc3ccccc3)C(=O)COc3ccccc3)n2)cc1 | i | 0.33
Cc1cccc(Cc2c(C)nc3nc(SCC(=O)O)nn3c2C)c1 | i | 0.84
Cc1ccccc1CNC(=O)CC1C(=O)NCCN1Cc1c(F)cccc1Cl (configuration not stated) | i | 1.69
O=c1c2ccccc2nc(/C=C/c2ccc(O)cc2)n1CCc1ccccc1 | i | 2.25
Cc1c(-c2ccc(F)cc2)[n+](=O)c(-c2ccc(F)cc2)c(C)n1[O-] | i | 0.55
O=[N+]([O-])c1cccnc1N1CCN(c2ccccc2F)CC1 | i | -0.78
CC(Sc1nnc(-c2ccc(Cl)cc2Cl)n1Cc1ccccc1)C(=O)Nc1nccs1 (configuration not stated) | i | -0.83
O=C(CSc1cn[nH]n1)Nc1ccccc1C(=O)O | i | 4.48
COc1ccc(/C=N/NC(=O)CN(C2=NS(=O)(=O)c3ccccc32)c2ccccc2)cc1OC | i | -0.06
CC(C)(C)c1ccc(NC(=O)COC(=O)C2(C)CC2(Cl)Cl)cc1 (configuration not stated) | i | 1.8
